# Screening data deposited in PubChem by Broad Institute.
# Tg IFNy HTS = blocks Toxoplasma gondii growth in the presence of IFN-gamma; Toxoplasma gondii growth in IFN-gamma-treated host cells; stronger effect = lower value; reference of the scale not given here; activity change, negative = inhibition, %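 (about 20 µM by stock and volumes)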; actives 3.8% (n = 69,000); AID 1259416;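 active = below -70%; inconclusive = fit judged invalid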;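 note: host cells are HeLa cells infected with Toxoplasma gondii; parasite growth read as luciferase light; one replicate is shown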
# Numbers without * were called inactive; i = inactive; ? = inconclusive; & = joins results of further samples. The list is partial; rates above refer to the full screens.
Molecule,Tg IFNy HTS
COc1ccc2[nH]cc(CCN3CC(C(=O)Nc4cccc(C)c4C)CC3=O)c2c1 (stereo unspecified),374
CS(=O)(=O)N1CCC(NC(=O)c2cccc(CC3CCNCC3)c2)CC1,4
CN1CCC(N(Cc2ccncc2)C(=O)NCc2cccc(F)c2)CC1,-1
c1ccc2c(c1)CCN(c1nn3nnnc3c3ccccc13)C2,-40
Cc1cc(F)ccc1NC(=O)c1c(O)c2ccccc2n(-c2ccccc2)c1=O,16
CCCCN(CC)CCNC(=O)C1=C(C)C(=O)OC12CCN(S(C)(=O)=O)CC2,8
NS(=O)(=O)c1cc(Cl)c(Cl)cc1Cl,37
O=C(c1cc2cccnc2n(Cc2ccccc2)c1=O)N1CCN(c2ccccc2)CC1,8
O=C1CSC(c2cc3ccccc3o2)N1c1ccc(F)cc1 (stereo unspecified),31
CCS(=O)(=O)N1C[C@H]2CCCC(OCc3cccnc3)[C@@H]2C1 (stereo partly specified),-32
CCN1c2cc(C)ccc2-n2cccc2C12CCN(C(=O)c1ccc3c(c1)OCO3)CC2,?
Cc1ccccc1-c1nc(COc2ccc(C(N)=O)cc2)c(C)o1,-28
CCCCNC(=O)CC1Nc2c3ccccc3nc(=S)n2C1=O (stereo unspecified),-3
Cc1noc([C@H]2C[C@@H]3OCC[C@@H]3N(C(=O)c3ccoc3C)C2)n1,36
CN1CCN([C@@H]2CCN(S(C)(=O)=O)[C@H]2Cc2cnn(C)c2)CC1,-16
O=C(O)CSc1nnc(Cc2c[nH]c3ccccc23)n1-c1cccnc1,3
COc1cncc(C(=O)Nc2ccccc2)c1,153
CCC(=O)N1CCc2c([nH]c3ccccc23)C12C(=O)N(CC(C)C)c1ccccc12 (stereo unspecified),i
CC(C)(O)C#Cc1ccc(C(=O)N2CCC(Oc3ncccn3)CC2)cc1,-43
CO[C@@H]1CN(C)C(=O)c2cc(NC(=O)Nc3ccccc3F)ccc2OC[C@@H](C)N(CCC(F)(F)F)C[C@H]1C,-43
NCCOCc1ccc(-c2cc3ccccc3o2)cc1,-24
C[C@@H]1CCCCO[C@H](CN(C)CC2CCCCC2)[C@H](C)CN([C@H](C)CO)C(=O)c2cc(NC(=O)Nc3ccc(C(F)(F)F)cc3)ccc2O1,300
CCOc1ccccc1NC(=O)c1c(O)c2ccccc2n(CC)c1=O,66
CCCN1C[C@@H](C)[C@@H](OC)CN(C)C(=O)c2cc(NC(=O)C3CCC3)ccc2OC[C@H]1C,134
Cc1ccc(-c2nc(Cn3nnc(-c4nc(-c5ccc(Cl)cc5)no4)c3C)c(C)o2)cc1,-4
CN(c1ccccc1)c1ccc2ccc(C(=O)N3CCCC3)cn12,-31
O=C(c1cccnc1)N1CC2(C1)[C@H](c1ccccc1)[C@H](CO)N2Cc1ccc(Cl)cc1,-34
COc1ccc2nc(C)cc(SCC(=O)c3ccc(Cl)cc3)c2c1,124
CCS(=O)(=O)N1CC2(CCN(Cc3cccc(OC)c3)CC2)c2c([nH]c3cc(OC)ccc23)[C@@H]1CO,-61
Cc1cc(C(=O)NC2CCN(C(=O)Nc3ccccc3)CC2)n[nH]1,7

# Later entries
Molecule,Tg IFNy HTS
C1CCc2[nH]nc(CNC3CSCCSC3)c2CC1,34
CC(C)n1nccc1C(=O)N1CCC(O)(c2cccnc2F)CC1,-2
CC(C(=O)NCc1cccnc1-n1cnc2ccccc21)N1CCCC1 (stereo unspecified),0
Cc1nc2c(c(NCCc3ccncc3)n1)CNC2,1
O=C(CCN1CCOCC1)c1cc2ccc(-c3ccc(F)cc3)cn2c1-c1cocn1,0
CCS(=O)(=O)N1CCC[C@]2(C[C@@H](OCc3ccncc3)CO2)C1,6
CC1=NOC(C(=O)NCc2cnn3ccccc23)C1 (stereo unspecified),-26
c1ccc(SCc2ccc(-c3nc4ccccc4s3)cc2)nc1,35
Cn1nc(C2CCN(C(=O)CCn3ccnc3)CC2)n(-c2ccccc2)c1=O,29
CO[C@H]1CN(C)C(=O)c2ccc(NC(=O)Nc3ccccc3)cc2OC[C@H](C)N(C(=O)CC2CC2)C[C@@H]1C,103
Cc1ccc(NC(=O)N2CCc3nc(-c4ccccc4)sc3C2)cc1C,101
CC(C)NC(=O)N(C)C[C@H]1Oc2ccc(NC(=O)c3ccncc3)cc2C(=O)N([C@@H](C)CO)C[C@@H]1C,0
CCc1c(C)sc2c1CCN(Cc1nc(-c3cc(C)ccc3C)oc1C)C2c1ccccc1 (stereo unspecified),-67
COc1ccc(-c2nc(C)c(CCNC(=O)C(=O)Nc3cccc(Cl)c3)s2)cc1,2
CCN1C(=O)CCc2cc(NC(=O)CCc3ccccc3OC)ccc21,11
CCS(=O)(=O)Nc1ccc2c(c1)C(=O)N(C)[C@@H]1CC[C@H](CC(=O)NC3CCCCC3)O[C@@H]1CO2,10
CSc1ccc(C2c3[nH]c4ccccc4c3CCN2C(=O)c2ccncc2)cc1 (stereo unspecified),309
CCCN1CCC(Cc2noc(C3(N)CCCC3)n2)CC1,1
O=C(NCCCO)c1cc(-c2ccn(C3CCCC3)n2)n2ccccc12,39
COc1ccc(S(=O)(=O)N2CCC3(CC2)C(=O)N(C)CCN3Cc2ccccc2)cc1,-20
CCOCC1c2c(cnn2CC2CC2)CCN1C(=O)c1ccoc1 (stereo unspecified),135
CS(=O)(=O)N1CC[C@@H]2OCCN(C(=O)c3cccnc3)[C@@H]2C1,1
COc1cc(N2CCC(CO)(Cc3ccc(Cl)cc3)CC2)ncn1,-8
Cc1oc(C2CCN(C(=O)Cc3ccsc3)CC2)nc1C(=O)N1CCCC1,55
CCS(=O)(=O)N1C[C@@H]2COC[C@]2(COCc2csc(C)n2)C1,4
C=CCN1C(=O)CCC12CCC(NC(=O)c1ccncc1F)CC2 (stereo unspecified),10
Cc1n[nH]c(C)c1CCCNC(=O)C1CC2(CCNCC2)CN1 (stereo unspecified),4
CC(=O)c1c(C)nn2c3ccccc3n(C)c12,1
COCC#Cc1ccc([C@@H]2[C@@H](CO)N3CCCCN(Cc4cccnc4)C[C@@H]23)cc1,12
O=C(c1cnccn1)N1CC(=O)N2[C@H](C1)[C@H](c1ccc(/C=C/c3ccccc3)cc1)[C@@H]2CO,-63

# Grouped by structure: the entries above with two or more sulfur atoms
Molecule,Tg IFNy HTS
C1CCc2[nH]nc(CNC3CSCCSC3)c2CC1,34
c1ccc(SCc2ccc(-c3nc4ccccc4s3)cc2)nc1,35
CCS(=O)(=O)N1C[C@@H]2COC[C@]2(COCc2csc(C)n2)C1,4

# (further entries)
Molecule,Tg IFNy HTS
Cc1ccc(CN2CCCC3(COCCN(c4cnccn4)C3)C2)s1 (stereo unspecified),-94*
CNC(=O)[C@H]1C[C@@H]2CN(C(=O)NC3CCCC3)C[C@H]1O2,i
O=C(c1ccn[nH]1)N1CCC(c2cc3nc(-c4cccs4)cc(C(F)(F)F)n3n2)C1 (stereo unspecified),-46
Cc1nc(OCC(=O)NCc2ccccc2)c2ccccc2n1,3
C=C(C)[C@@H]1CC=C(CN2CCC3(CC2)C(=O)N(C2Cc4ccccc4C2)C(=O)N3CCOC)CC1,-8
COc1ccc(S(=O)(=O)N2C[C@H](O)COC[C@@H]3O[C@H](CC(=O)N[C@H]4CCN(Cc5ccccc5)C4)CC[C@H]32)cc1,8
CN1CCN(C(=O)COCC2COc3ccccc3O2)C(c2ccccc2)C1 (stereo unspecified),0
COc1ccc(C(=O)N2CCc3nc(N4CCCC(C)C4)[nH]c(=O)c3C2)cn1 (stereo unspecified),7
CCc1ccccc1NC(=O)C(=O)NCCc1sc(-c2cccc(C)c2)nc1C,2
Cc1ccsc1-c1cn(C(CO)Cc2ccc(Cl)cc2)nn1 (stereo unspecified),-7
CCc1cnc(N2CCCC3(CC(Oc4cccnc4)CO3)C2)nc1 (stereo unspecified),0
CCn1ccnc1CN(C)Cc1sccc1C,2
CCOc1ccccc1NC(=O)c1c(O)c2cccnc2[nH]c1=O,-30
CCN1CCn2c(-c3cccc(F)c3)cnc2C12CCN(C(=O)c1cscn1)CC2,-1
Cc1oc(-c2ccccc2)nc1Cc1noc(-c2ccccc2F)n1,127
Cc1nn(C(C)CNC(=O)CCN2C(=O)COc3ccc(Cl)cc32)c(C)c1C (stereo unspecified),6
CCN(CC)CCN1C(=O)C(=O)/C(=C(/O)c2c(C)[nH]c(C(=O)OC)c2C)C1c1cccnc1 (stereo unspecified),7
Cn1nnnc1SCCCNCc1ccc2c(c1)n(C)c(=O)n2C,-41
Cc1ccccc1NC(=O)C(=O)N1CCCC(OCc2cccnc2)C1 (stereo unspecified),51
COC(=O)N1CCC2(CC1)NC(=O)c1ccccc12,-8
COc1ccccc1-c1nc(CSc2nc3c(c(=O)[nH]2)CN(Cc2ccc(F)cc2)CC3)c(C)o1,20
C[C@H](CO)N1C[C@H](C)[C@@H](CN(C)C(=O)CCC(F)(F)F)OCc2cn(nn2)CCCC1=O,283
CO[C@@H]1C[C@H]2CN(S(=O)(=O)c3cccs3)CCN2C1,i
CC(=O)N1CC[C@H]2[C@H](CO)Nc3ccc(-c4ccccc4)cc3[C@H]21,2
Cc1oc(C2CCN(C(=O)c3ccc(Br)cc3)CC2)nc1C(=O)N(C)C,56
O=C(C[C@H]1C=C[C@@H](NC(=O)c2ccncc2)[C@@H](CO)O1)NCC1CC1,-16
CCc1ccc(Nc2nc(C(=O)NCCc3cnc[nH]3)nc3ccccc23)cc1,-34
Cc1ccccc1S(=O)(=O)N1CC[C@@H]2[C@H](CC1)N(CC(C)C)CCS2(=O)=O,-13
COc1cc(O)c(C(=O)c2ccccc2)cc1S(=O)(=O)O,21
CC1=C(C(=O)NCCN(C)C2CCCCC2)C2(CCN(S(C)(=O)=O)CC2)OC1=O,24

# Structural class, those above with a furan ring, fused or not (four)
Molecule,Tg IFNy HTS
O=C1CSC(c2cc3ccccc3o2)N1c1ccc(F)cc1 (stereo unspecified),31
Cc1noc([C@H]2C[C@@H]3OCC[C@@H]3N(C(=O)c3ccoc3C)C2)n1,36
NCCOCc1ccc(-c2cc3ccccc3o2)cc1,-24
CCOCC1c2c(cnn2CC2CC2)CCN1C(=O)c1ccoc1 (stereo unspecified),135

# Additional records follow.
Molecule,Tg IFNy HTS
CCCCS(=O)(=O)N1Cc2ccnn2CC(c2nc(C)no2)C1 (stereo unspecified),10
CC(=O)NCc1cccc(-c2cccc(NC(C)=O)c2)c1,-3
CO[C@@H](CN(C)C(=O)c1ccc2c(c1)OCO2)[C@@H](C)CN([C@H](C)CO)S(=O)(=O)c1ccc(Cl)cc1,-39
Cc1nc(N(C)C)ncc1C(=O)NCC1(c2ccccc2F)CCCC1,-13
CCCc1nnc(SCC(=O)c2ccc(Br)cc2)o1,28
CNC(=O)c1ccc(-c2ccnc3c2ccn3C)o1,61
C[C@@H]1CN(CC(=O)Nc2ccc3c(c2)Cc2cccc(-c4cc(=O)cc(N5CCOCC5)o4)c2S3)C[C@H](C)O1,-12
CC(=O)c1cc(C(=O)N2CC(=O)N(C3CCCCC3)CC(OCc3ccccc3)C2)[nH]n1 (stereo unspecified),-2
CC1(C)S[C@@H]2[C@H](NC(=O)[C@H](N)c3ccc(O)cc3)C(=O)N2[C@H]1C(=O)O,6&25
Cc1c(C(=O)O)sc2nc[nH]c(=O)c12,-13
Cc1ccc(Cn2c(CN3CCC(C(=O)NCCCN4CCCC4)CC3)cc3ccccc32)cc1,-35
CCn1c(CC2CCNCC2)nn(Cc2noc(COC)n2)c1=O,-31
C[C@@H]1CC[C@]2(C(=O)O)CC[C@]3(C)C(=CCC4[C@@]5(C)CC[C@H](O)C(C)(C)C5CC[C@]43C)C2[C@H]1C (stereo partly specified),10
O=C(O)C1CN(C(=O)c2ccccc2Oc2ccccc2)CCN1 (stereo unspecified),-3
COc1ccc(-c2nc(N(C)Cc3ccco3)c3ccccc3n2)cc1,-27
COc1ccccc1NC(=O)Cn1c(C)nc2ccc(NC(=O)c3ccco3)cc2c1=O,-2
O=C1CCC2(CCN1)CCN(C(=O)c1cnc(-c3cccs3)nc1)CC2,6
CSc1cccc(NC(=O)N2CCCCC2CCN2CCCC2=O)c1 (stereo unspecified),4
Cc1nc(C(C)C)sc1C(=O)N1CCCn2nc(C(=O)O)cc2C1,87
CNC[C@@H]1Oc2cc(C#Cc3ccccc3OC)ccc2S(=O)(=O)N([C@@H](C)CO)C[C@H]1C,-25
O=C(CCC1CCCN(C(=O)Cn2nc3ccccc3n2)C1)NCc1ccc(F)c(F)c1 (stereo unspecified),-1
COc1ccccc1C1c2[nH]c3ccccc3c2CCN1Cc1nc2ccccc2n1C (stereo unspecified),-54
CCS(=O)(=O)N1CCC2(CC1)OC(=O)C(C)=C2C(=O)N1CCc2ccccc2C1,23
Cc1ccc(Nc2nc(-c3ccccc3)c3cc(C)ccc3n2)cc1,-41
OC(COc1ccc(F)cc1)(c1ccc(Cl)cc1)c1ccc(Cl)cc1,-99*
COCC(=O)NC1CCN(C2CCNCC2)CC1,13
COC(=O)c1cc2n(n1)CCCN(C(=O)c1c(C)nc3sccn13)C2,8
COc1ccc(C[C@H]2CCn3cc(nn3)COCCCNC2=O)cc1,66
Cc1cccc(N2CCCC3(C2)CN(S(=O)(=O)C2CC2)CCO3)c1 (stereo unspecified),7
CCOc1ccc(Cc2cc([C@@H]3O[C@H](CO)[C@@H](O)[C@H](O)[C@H]3O)ccc2Cl)cc1,7&15
CO[C@H](CN(C)C(=O)c1cnccn1)[C@@H](C)CN([C@H](C)CO)S(=O)(=O)c1ccccc1,2
